Compound activity: PubChem BioAssay, National Center for Advancing Translational Sciences (NCATS)
miR-21 FLuc: miR-21 reporter, rising signal; HeLa miR-21 FLuc reporter, luciferase, 48 h; Potency, µM (titrated, usually from 38.3 µM), inactives show at the highest dose reporter change, positive = more light; 340,000 tested, under 10 active; active = well fitted rising curve with a large enough effect; inconclusive = small, poorly fitted or top-dose-only effect; inactive = no such curve, though single readings can be large or run the other way;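 also: % of control where 0% means no effect; miR-21 action dims this reporter so a rising signal means less miR-21 action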
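Luminescence from a firefly luciferase reporter carrying a miR-21 binding site downstream, stably expressed under a CMV promoter in HeLa cells that make miR-21 endogenously, reports miRNA modulation after 48 h compound exposure up to approximately 40uM final.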
GLA inh pH 4.5: blocks human alpha-galactosidase A at pH 4.5; activity change, negative = inhibition, % at 105 µM; 230,000 tested, under 10 active; P06280; purified enzyme, 4-MU-alpha-Gal fluorescence, pH 4.5; inconclusive = small, poorly fitted or top-dose-only inhibition, or a rising curve; inactive = flat fitted curve, though single readings scatter; no compound was filed as active;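 also: 0% = full activity with enzyme and -100% = basal without enzyme; dose as in the result columns while the protocol names 77 µM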
Target sequence (P06280 whole entry, looked up): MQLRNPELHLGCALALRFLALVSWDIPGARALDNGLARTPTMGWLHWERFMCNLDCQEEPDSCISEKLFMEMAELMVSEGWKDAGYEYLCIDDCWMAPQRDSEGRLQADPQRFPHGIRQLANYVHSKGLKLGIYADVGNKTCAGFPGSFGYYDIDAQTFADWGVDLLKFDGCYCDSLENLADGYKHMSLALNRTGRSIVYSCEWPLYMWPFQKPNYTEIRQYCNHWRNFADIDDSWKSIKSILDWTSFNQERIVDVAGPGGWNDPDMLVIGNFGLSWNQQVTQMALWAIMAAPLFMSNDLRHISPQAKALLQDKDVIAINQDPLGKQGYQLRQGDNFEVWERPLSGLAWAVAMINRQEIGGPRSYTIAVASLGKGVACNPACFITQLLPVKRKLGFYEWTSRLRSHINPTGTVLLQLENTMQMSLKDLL
Rango complex inh: prevents formation of the Rango-importin beta complex. Q14974. Rango CFP/YFP FRET sensor + importin beta, 45 min. Potency, µM (titrated, usually from 92.2 µM), for inactives: top-dose inhibition of complex formation. 0.031% of 340,000 active. AID 540263; active = rising FRET ratio curve, often small or poorly fitted; inconclusive = mostly compound fluorescence or quenching in the first reads; inactive = flat curves in all reads;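 also: potency is read from the fitted curve at half-maximal effect; 0% = DMSO wells and 100% = buffer wells lacking importin beta; nearly all actives have a fitted effect of over 15% in size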
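FRET biosensor (snurportin 1 IBB flanked by EYFP and cerulean), 50 nM, with compound 5 min, then 0.125 microM importin beta in PBS, 1 mM DTT, 0.02% Tween-20, 0.1% BSA. CFP/YFP ratio read after 45 min at room temperature; pre-read flags interference.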
Rango dissoc inh: inhibition of RanGTP-driven Rango-importin beta dissociation | 0.071% of 340,000 active | Potency, µM (doses to about 46.1 µM), without a hit: top-dose activity change, negative = inhibition | O95149+P62826 | Biochemical FRET Rango-importin beta, RanGTP-induced dissociation; active means falling FRET ratio curve, often poorly fitted, with flat reads before Ran was added; inconclusive means other falling curves, or compound fluorescence or quenching; inactive means flat or rising ratio curve;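 also: potency is read from the fitted curve at half-maximal effect; % of control where 0% means no effect; nearly all actives have a fitted effect of over 45% in size; -100% = wells without RanGTP and RCC1; the record marks most hits as doubtful in a second field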
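Compounds sat 5 min at room temperature with 0.1 uM Rango biosensor plus 0.25 uM importin beta, then FRET pre-read. RanGTP-RCC1 (0.6 uM Ran, 2mM GTP, 0.2 uM RCC1) added for 45 min, and the CFP/YFP post-read measured blocked complex dissociation.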
* = called active by the depositor; ? = inconclusive; / = no result given; & = joins results of further samples; [ ] = remark or other dose. Not all compounds are listed; rates above refer to the full screens.

miR-21 FLuc	GLA inh pH 4.5	Rango complex inh	Rango dissoc inh	structure
-1%	7	-0.1%	0%	CC(=O)c1cc(NC(=O)c2ccccc2)c(=O)oc1C
3%	3	-0.8%	1%	COc1cccc(CN2C(=O)Nc3ccccc3C(=O)N2C(C)(C)C)c1
-54%	-2	-0.8%	-5%	Cc1cc(OCc2ccc(C(=O)n3cccn3)o2)ccc1Cl
1%	2	?	?	N#Cc1ccc(OCC(=O)n2cc(C(=O)c3cc(Cl)cc(Cl)c3O)cn2)cc1
0%	/	2.7%	1%	COC(=O)C1(CC2CC(c3cccc(Br)c3)=NO2)CCN(C(=O)OC(C)(C)C)CC1 (stereo unspecified)
7%	-3	2.8%	-17%	CC1=C(C(=O)Nc2ccc(Cl)cc2)C(c2ccco2)NC(=O)N1 (stereo unspecified)
-8%	-9	-1.8%	-14%	Cc1cccc(-c2nc(CN3CCCC(C(=O)NC4CCC(C)CC4)C3)c(C)o2)c1 (stereo unspecified)
-4%&3%	3&-4	-0.9%&1.2%	-13%&7%	CNC(=O)Oc1ccc2c(c1)[C@]1(C)CCN(C)[C@@H]1N2C
15%	/	0.1%	-14%	COc1ccc(-c2c(-c3ccc(OC)c(C)c3O)n[nH]c2C)cc1
-1%	-12	3.4%	-7%	O=C(Cn1c(CN2CCCCC2)nc2ccccc2c1=O)Nc1ccccc1
-38%	-2	0.9%	-11%	CC(=O)N1CCN(C(=O)CSc2nc3c(cnn3-c3ccccc3)c(=O)[nH]2)CC1
-1%	7	1.1%	2%	Cc1ccccc1NC(=O)Cn1c(C)nc2ccc(N)cc2c1=O
-6%	-4	2.1%	-10%	Cc1cc(C)c(C#N)c(Nc2ccccc2)n1
0%	3	-0.3%	0%	O=C(NC1(C(F)(F)F)NC(=O)N(Cc2cccnc2)C1=O)c1ccncc1 (stereo unspecified)
-12%&-8%	-8	-1.0%	1%	COc1ccc(-c2noc(CSc3nnc(-c4ccccc4)n3C)n2)cc1
-5%	/	2.6%	1%	O=C(CCCC(=O)c1ccccc1)NCCc1ccccc1F
-5%	-3	?	-3%	Cn1nnnc1SCC(=O)Nc1cc(C(=O)O)cc(C(=O)O)c1
-4%	/	-4.4%	0%	Cc1ccc(C(=O)OCC(=O)N(CC(C)C)c2c(N)n(Cc3ccccc3)c(=O)[nH]c2=O)s1
-16%	-5	-4.4%	-20%	CCOc1ccc2[nH]cc(C(=O)N3CCN(CC)CC3)c(=O)c2c1
-5%	-1	1.0%	-9%	COc1ccccc1NC(=O)c1ccc(NS(C)(=O)=O)cc1
-1%	-8	0.2%	-7%	COc1ccc(Cl)cc1Nc1ncnc2sc(C)c(S(=O)(=O)N3CCC(C)CC3)c12
-53%	8	?	?	CCC(C)N1C(=O)S/C(=C/c2ccc(N3CCOCC3)cc2C)C1=O (stereo unspecified)
-19%	5	-0.1%	-3%	CN(C)C(CNc1ncnc2sc3c(c12)CCCC3)c1ccco1 (stereo unspecified)
15%	-1	-0.6%	13%	CCCN(CC1CC1)C(=O)COC(=O)c1[nH]c(C)c(C(=O)OCC)c1C
-4%	1	2.7%	-2%	CCNC(=O)C1CC(=O)N(c2ccc(OCC)cc2)C1 (stereo unspecified)
-62%	/	-3.6%	21%	CC(C)c1ccc(N(C(=O)c2ccco2)C(C(=O)NC2CCCC2)c2ccncc2)cc1 (stereo unspecified)
-50%	/	0.1%	-3%	CC(C)CCNC(=O)c1ccc(NC(=O)C2=CSCCO2)cc1
/	-2	-0.4%	0%	COc1cc2oc(=O)cc(-c3cccc(-c4cccc(C)c4)c3)c2c(OC)c1OC
11%	/	-0.2%	15%	CCOc1ccc2nc(N(CCN(C)C)C(=O)/C=C/c3cccs3)sc2c1
2%	-12	2.0%	3%	CCN1C(=O)c2cccc3c(NC(=O)c4ccc(S(=O)(=O)N(C)C)cc4)ccc1c23
-2%	-3	-2.2%	-7%	Cc1ncc(S(=O)(=O)c2ccccc2)c(-c2ccccc2)n1
/	/	0.2%	8%	Cc1cccc(NS(=O)(=O)c2ccc(C)c(NS(=O)(=O)c3cccs3)c2)c1
-1%	-8	-3.2%	-17%	Cc1ccc(NC(=O)c2cc(S(=O)(=O)N3CCCCC3)ccc2N2CCOCC2)cc1F
/	/	0.6%	-5%	CC[C@@]1(C(=O)OC)N[C@H](CN(C)S(=O)(=O)c2ccc(-c3ccccc3)cc2)[C@@H]2C(=O)N(Cc3ccccc3)C(=O)[C@@H]21
-1%	0	?	-11%	Cc1nc2ccccn2c1/C(O)=C1\C(=O)C(=O)N(CCN(C)C)C1c1cccnc1 (stereo unspecified)
/	/	3.9%	-32%	C#CCOCCOCCOCCNc1nc(N2CCN(C(=O)C([C@@H](C)CC)n3cc(C(N)COC(=O)C(F)(F)F)nn3)CC2)nc(N2CCN(C(=O)[C@H](CCCCN)n3cc(C(N)[C@H](C)CC)nn3)CC2)n1 (stereo partly specified)
0%	7	-0.6%	-17%	O=C(Nc1nnc(C2CC2)s1)C1CCCCN1S(=O)(=O)c1ccccc1 (stereo unspecified)
1%	-22	-6.8%	-10%	CCCCN(CCCC)Cc1ccc(C(=O)NNC(=O)Nc2ccc(Cl)cc2)o1
-51%	-5	0.9%	0%	C=CCn1c(NCc2c[nH]c3ccccc23)nc2ccccc21
1%	7	-2.1%	17%	Cc1csc(NC(=O)c2cc3c(C)nn(Cc4ccccc4Cl)c3s2)n1
1%	2	-4.3%	-7%	CCOC(=O)/C(N=O)=C(\O)C1CCN(C(=O)OCC)CC1
-6%	/	-0.1%	13%	CN1CCN(c2nc3c(c(=O)[nH]c(=O)n3C)n2Cc2ccccc2)CC1
-30%	-6	1.7%	-6%	COc1ccccc1C1=NC(c2ccc(F)cc2)N=C1C (stereo unspecified)
23%	-12	-0.3%	4%	CCOc1ccc(CN(C(=O)c2oc3cc(C)ccc3c2C)C2CCS(=O)(=O)C2)cc1 (stereo unspecified)
5%	7	3.2%	28%	COc1ccccc1C(=O)Oc1cc(N)n(S(=O)(=O)c2ccccc2)n1
-3%	/	3.4%	17%	CC(C)(C)OC(=O)N1CCC(c2c(C(=O)N3CCN(C4CCCCC4)CC3)cnn2-c2ccccc2)CC1
-10%	-3	-0.7%	-10%	CCOC(=O)c1[nH]c(C)c(C(=O)NCc2ccc(Cl)cc2)c1C
27%	/	?	?	C/C(=N\NC(=O)c1nnn(-c2nonc2N)c1CN(C)c1ccccc1)c1ccccc1O
?	-15	-0.3%	11%	Nc1c(C(O)(C(F)(F)F)C(F)(F)F)cc(C(O)(C(F)(F)F)C(F)(F)F)c2ccccc12
1%	6	2.5%	-4%	CC(=O)c1ccc(-n2ccnc2)cc1
-5%	-4[21.1 µM]	0.6%	-7%	CSc1ncccc1C(=O)Nc1nc2ccc(S(C)(=O)=O)cc2s1
-45%	-3	-0.1%	-3%	Clc1ccc(-c2nnsc2SCc2ccccc2)cc1
-41%	4	-2.1%	-11%	CC(=O)Oc1cc(OC(C)=O)c2c(=O)c(-c3ccc4c(c3)OCCCO4)c(C)oc2c1
20%	/	?	?	Cc1ccc2c(c1)c1c3n2CCN(C(=O)CCl)C3CCC1 (stereo unspecified)
1%&-1%	0	-2.2%	-6%	O=C(CC1Nc2cccc3cccc(c23)NC1=O)Nc1ccc(F)cc1 (stereo unspecified)
-5%	/	2.5%	24%	COc1ccc(NC(=O)CC23CC4CC(CC(Br)(C4)C2)C3)c(OC)c1

(cont.)
miR-21 FLuc	GLA inh pH 4.5	Rango complex inh	Rango dissoc inh	structure
/	/	-0.7%	-1%	COc1ccccc1-c1nnc(SCC(=O)Nc2ccc(N3CCOCC3)cc2)n1C
1%	4	1.2%	1%	COc1cc(S(=O)(=O)N2CCOCC2)ccc1N
1%	/	-0.5%	-5%	Nc1nonc1-n1nnc(C(=O)N/N=C/c2ccc(OCc3ccccc3F)cc2)c1CN1CCCCC1
-4%	/	3.2%	5%	COc1ccc(NC(=O)NC(c2ccccc2)c2ccccc2)c(OC)c1
-5%	-1	-3.2%	-4%	O=C(Cc1ccc(F)cc1)N(c1ccccc1)C1C=CS(=O)(=O)C1 (stereo unspecified)
-6%	3	-0.5%	-4%	COc1cc(C(=O)NCCc2ccc3c(c2)OCCO3)ccc1OCC(=O)N1CCOCC1
-4%	1	1.0%	-9%	O=C(COc1ccccc1)Nc1ccc(S(=O)(=O)N2CCOCC2)cc1
-3%	-2	-1.0%	-10%	CN1CC(=O)N(C)c2ncn(Cc3ccccc3)c2C1=O
/	/	-1.1%	19%	COc1ccc(S(=O)(=O)Nc2cccc3c2O[C@H](CN(C)C(=O)NC2CCCCC2)[C@@H](C)CN([C@H](C)CO)C3=O)cc1
1%	3	-2.3%	-17%	O=Cc1cn(-c2ccccc2)nc1-c1cc2c(ccc3ccccc32)oc1=O
1%	8	?	0%	COc1ccc(CCNC(=O)CSc2nnc3ccc(-c4ccncc4)nn23)cc1
/	/	4.2%	-11%	Cc1ccc(C(=O)Nc2cccc(S(=O)(=O)N3CCCCC3)c2)cc1[N+](=O)[O-]
-6%	/	0.3%	-15%	Cn1cc(S(=O)(=O)Cc2ccc(F)cc2)c2ccccc21
/	/	?	3%	CN(C)c1ccc(S(=O)(=O)NCC(=O)N2CCN(S(=O)(=O)c3cccc(F)c3)CC2)cc1[N+](=O)[O-]
?	-11	?	?	Cc1cc(/C=C2\C(=N)N3N=C(c4ccco4)SC3=NC2=O)c(C)n1Cc1ccccc1
3%	0	0.3%	5%	C=CCn1c(O)c(N=NC(=O)c2cccnc2)c2cc(Br)ccc21
-6%	?	4.6%	3%	CCC(C)n1c(-c2cccs2)nc2nc3ccccc3nc21 (stereo unspecified)
-2%	-9	-2.0%	2%	O=C1CC(c2ccco2)Cc2nc(N3CCN(Cc4ccc5c(c4)OCO5)CC3)ncc21 (stereo unspecified)
-20%	3	-1.6%	-17%	Cc1ccnc(NC(=O)c2ccccc2[N+](=O)[O-])c1
-2%	-16	2.6%	-6%	O=C(Cn1cnc2c(cnn2-c2ccc(F)cc2)c1=O)NCCc1ccccc1
?	/	-1.8%	6%	Cc1cccc(CS(=O)(=O)c2ncc(Cl)c(C(=O)Nc3nnc(C(C)C)s3)n2)c1
0%	-3	0.6%	13%	O=C(Cn1ncc2c1-c1ccccc1OC2)Nc1ccc(S(=O)(=O)N2CCCCC2)cc1
-6%	-3	-4.5%	9%	CC(C(=O)NC(=O)NCc1ccccc1)N1C(=O)c2ccccc2C1=O (stereo unspecified)
/	/	-3.3%	-2%	CN(C(=O)Cn1nnc(-c2ccccc2)n1)C1CCS(=O)(=O)C1 (stereo unspecified)
